High-throughput results as filed in PubChem BioAssay.
RE007 growth inh: less growth of the S. pombe RE007 Vpr strain. S. pombe RE007 Vpr strain, BacTiter-Glo ATP luminescence, 24 h; control for the full effect not named in the record. Potency, µM (doses to about 92.2 µM), for inactives: top-dose activity change, negative = less growth. AID 651644. 360,000 tested, 0.21% active; active = well fitted falling curve with a large enough effect; inconclusive = small, poorly fitted or top-dose-only effect; inactive = no such curve, though single readings can be large or run the other way;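 note: % is set by controls: 0 for no effect and ±100 for the full control effect; nearly all actives have a fitted effect of over 50% in size; the assay follows cell death caused by Vpr and the record does not say whether a fall means rescue or toxicity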
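Fission yeast RE007 carrying one integrated HIV-1 vpr copy, seeded at OD 0.01 in PMG+AL medium with 23 nL pinned compound. Grown 24 h at 30 degrees; viability read by BacTiter-Glo luminescence after 5 min.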
StopGo reporter: lowers the luciferase signal of an FMDV 2A StopGo reporter; human cells with a luciferase reporter of 2A StopGo recoding; control for the full effect not named in the record; Potency, µM (doses to about 57.9 µM), without a hit: top-dose signal change, negative = less light; 410,000 tested, 1.2% active; active = well fitted falling curve with a large enough effect; inconclusive = small, poorly fitted or top-dose-only effect; inactive = no such curve, though single readings can be large or run the other way; tested in HEK293T cells; note: % is set by controls: 0 for no effect and ±100 for the full control effect; nearly all actives have a fitted effect of over 45% in size; luciferase light after 4 h
SARS PLP yeast: inhibitors of SARS-CoV papain-like protease in yeast | S. cerevisiae expressing SARS-CoV PLpro, growth rescue; control for the full effect not named in the record | Potency, µM (titrated, usually from 32.9 µM), for the others: top-dose activity, positive = growth rescue | 330,000 tested, 0.19% active; active means well fitted rising curve with a large enough effect; inconclusive means small, poorly fitted or top-dose-only effect; inactive means no such curve, though single readings can be large or run the other way; note: 0% is about no effect; nearly all actives have a fitted effect of over 55% in size; growth read by luminescence after 48 h
The depositor's hits bear a star; u = inconclusive; [ ] = remark or other dose. Potency is the fitted concentration of half-maximal effect.

molecule,RE007 growth inh,StopGo reporter,SARS PLP yeast
CC[C@]12c3[nH]c4ccc(Cl)cc4c3CCN1C(=O)[C@@H](CC(=O)NCCN1CCOCC1)C[C@@H]2C(=O)N1CCN(C(=O)c2ccco2)CC1,7%,-19%,0%
COC(=O)C1=C(c2cccc(OCc3ccccc3)c2)C[C@@H]2CC[C@H]1N2C(=O)NCCCOC(C)C,-4%,-24%,u
O=C(Nc1cccc(S(=O)(=O)N2CCCCC2)c1)C1CC1,-12%,10%,-4%
CCN(CC)C(CNC(=O)CSc1nnnn1-c1cccc(F)c1)c1ccco1 (stereo not drawn),-28%,-12%,-4%
Cc1cc(C(=O)COc2cc(F)ccc2[N+](=O)[O-])c(C)n1CC1CCCO1 (stereo not drawn),1%,-6%,-3%
CC(C)CCNC(=O)CN(C(=O)CCC(=O)Nc1ccccn1)c1ccc(F)c(Cl)c1,13%,4%,4%
COc1ccc([C@H]2CC(=O)C=C(c3cc(OC)ccc3OC)C2)cc1,6%,-13%,-1%
COc1ccc(OC)c(-c2csc(NC(=O)COC(=O)C3(C)CC3(Cl)Cl)n2)c1 (stereo not drawn),7%,u,-10%

molecule,RE007 growth inh,StopGo reporter,SARS PLP yeast
COc1ccc(C(CNC(=O)c2cccc(S(=O)(=O)N(C)c3ccccc3)c2)N2CCCC2)cc1 (stereo not drawn),-2%,-20%,-8%
CC1CC(C)CN(C(=O)COC(=O)c2ccc3c(c2)C(=O)N(Cc2ccco2)C3=O)C1 (stereo not drawn),0%,0%,-10%
CCN1C(=O)[C@H]2[C@@H](c3ccc(-c4ccc(Cl)c(Cl)c4)cc3)N3CCCC[C@@]3(C(=O)OC)[C@H]2C1=O,-2%,u,-1%
CCOc1cc(-c2n[nH]c(=S)n2Cc2ccccc2)ccc1OC(F)F,-12%,1%,4%
O=C(CNS(=O)(=O)c1ccccc1)N/N=C/c1ccncc1,1%,-4%,-6%
COc1ccc(NC(=O)N(C)C[C@H]2Oc3c(NC(=O)Cc4ccccc4)cccc3C(=O)N([C@H](C)CO)C[C@@H]2C)cc1,8%,18%,1%
Cc1ccc(OCC(=O)N(Cc2ccco2)c2c(N)n(Cc3ccccc3)c(=O)[nH]c2=O)cc1C,-2%,-19%,-6%
COc1ccc(CCNC(=O)CS(=O)(=O)c2cn(CC(=O)N3CCOCC3)c3ccccc23)cc1OC,-9%,-7%,4%

molecule,RE007 growth inh,StopGo reporter,SARS PLP yeast
CS/C(=C\[N+](=O)[O-])Nc1ccc(OC(F)(F)F)cc1,-4%,-23%,-7%
O=C(C(=O)N1CCOCC1)c1cn(Cc2ccccc2Cl)c2ccccc12,20%,8%,0%
CC(=O)Nc1ccc(S(=O)(=O)NC(C)C(=O)NCC(c2ccco2)N2CCCCC2)cc1 (stereo not drawn),1%,0%,-8%
CCCNC(=O)c1noc2c1CCc1cc(OC)ccc1-2,-5%,-16%,-3%
CCCCCn1cnnc1SCC(=O)c1ccc2c(c1)OCO2,6%,0%,-5%[6.58 µM]
O=C(COC(=O)c1cc(Cl)cc(Cl)c1)NCc1ccco1,7%,-9%,-3%
Cn1c(N)c(C(=O)CSc2nc(C3CC3)n(-c3ccccc3)n2)c(=O)[nH]c1=O,18%,-16%,2%
Cc1ccc(S(=O)(=O)N2CCOCC2)cc1C(=O)OCC(=O)NCCc1ccccc1,11%,-20%,3%

molecule,RE007 growth inh,StopGo reporter,SARS PLP yeast
CC(C)(C)OC(=O)NCc1ccc(CNC(=O)c2nc[nH]c2C(=O)NCc2ccccc2)cc1,7%,u,-6%
CC(C)(C)OC(=O)N1CCC(NC(=O)c2[nH]cnc2C(=O)Nc2cccc(Cl)c2)CC1,-6%,-8%,-1%
COc1ccc(CCNC(=O)COC(=O)C2COc3ccccc3O2)cc1 (stereo not drawn),6%,-1%,-4%
Nc1nc(-c2ccccc2)c(C(=O)Nc2ccccc2)s1,-1%,-6%,-1%
COc1ccc2c(c1)OC[C@H]1[C@H]2N2C(=O)CN(Cc3ccc(F)cc3)C(=O)[C@@]2(C)[C@H]1c1ccccc1,0%,u,0%
O=C1N[C@@H](c2ccccc2)COC(=O)[C@@H](Cc2ccc(F)cc2)C/C=C\C[C@@H]1CC(=O)N(CCO)Cc1ccccc1,11%,u,1%
O=C(CNC(=O)c1ccccc1F)NCCN1C(=O)S/C(=C\c2ccc3c(c2)OCO3)C1=O,5%,8%,-9%
C[C@H](CO)N1C[C@H](C)[C@@H](CN(C)C(=O)Nc2ccccc2)Oc2ccc(NC(=O)C3CCCCC3)cc2C1=O,12%,27%,-3%

Next part, starting with the last 4 of the part before.
molecule,RE007 growth inh,StopGo reporter,SARS PLP yeast
COc1ccc2c(c1)OC[C@H]1[C@H]2N2C(=O)CN(Cc3ccc(F)cc3)C(=O)[C@@]2(C)[C@H]1c1ccccc1,0%,u,0%
O=C1N[C@@H](c2ccccc2)COC(=O)[C@@H](Cc2ccc(F)cc2)C/C=C\C[C@@H]1CC(=O)N(CCO)Cc1ccccc1,11%,u,1%
O=C(CNC(=O)c1ccccc1F)NCCN1C(=O)S/C(=C\c2ccc3c(c2)OCO3)C1=O,5%,8%,-9%
C[C@H](CO)N1C[C@H](C)[C@@H](CN(C)C(=O)Nc2ccccc2)Oc2ccc(NC(=O)C3CCCCC3)cc2C1=O,12%,27%,-3%
COc1cc(C(=O)OCC(=O)c2cc(C)n(CC3CCCO3)c2C)cc(OC)c1C (stereo not drawn),-2%,-9%,1%
CC1(C)O[C@@H]2[C@H](O1)[C@@H](CO)O[C@H]2n1cc(Br)c(=O)[nH]c1=O,-1%,-1%,9%
COc1ccc2nc(-c3ccccc3)cc(C(=O)OCC(=O)N3CCCCC3)c2c1,-1%,-21%,-3%
O=C(CC1OC(=O)c2ccccc21)NNC(=O)c1ccc(F)cc1 (stereo not drawn),-5%,13%,5%
Cc1c(C(=O)N2CCCC(C(F)(F)F)C2)oc2ccccc12 (stereo not drawn),-22%,0%,0%
CC1(C)O[C@H]2CC(=O)OC[C@]23[C@H]2CC[C@@]4(C)[C@H](c5ccoc5)OC(=O)[C@H]5O[C@]54[C@]2(C)[C@@H](O)C[C@@H]13,0%,-11%,1%
COc1ccc(C2=NOC(Cn3nc(C(=O)NCc4ccccc4OC)cc3-c3ccccc3)C2)cc1 (stereo not drawn),6%,-15%,5%
O=C1c2ccccc2[C@@H]2C[C@H]3O[C@H]3CCN12,4%,-21%,-1%

molecule,RE007 growth inh,StopGo reporter,SARS PLP yeast
CCC(C)(C)C1CCc2[nH]nc(C(=O)NCC3CC3)c2C1 (stereo not drawn),0%,7%,-6%
C1=CC(Cc2cncs2)c2ccccc21 (stereo not drawn),-17%,20%,-2%
CN(CC(=O)Nc1c(Cl)cccc1Cl)C(=O)C1CC(=O)N(Cc2ccccc2)C1 (stereo not drawn),1%,5%,0%
O=C1c2ccccc2-c2onc3ccc(N4CCCC4)c1c23,u,-48%,1%
CN1C(=O)N(CC(=O)N2CCN(c3ccccc3F)CC2)C(=O)C12CCCCC2,1%,-16%,-8%
C[C@H]1CN([C@@H](C)CO)C(=O)c2cccc(NC(=O)C3CC3)c2O[C@H]1CN(C)Cc1ccc(-c2ccccc2)cc1,-8%,-4%,2%
Cc1ccc(-n2ncc(C(=O)Nc3cc(Cl)cc(Cl)c3)c2C2CCNCC2)cc1C,20%,u,4%
Cc1ccc(NC(=O)CN(C)C(=O)COC(=O)c2nccnc2N)cc1,6%,-1%,-4%

molecule,RE007 growth inh,StopGo reporter,SARS PLP yeast
COC(=O)[C@H](CO)NS(=O)(=O)c1ccc(C)cc1,30%,-15%,3%
COc1ccc2c(c1)C1=C(CC2)C(c2ccc(C)cc2)NC(=S)N1 (stereo not drawn),18%,-1%,-5%
COC(=O)c1oc(-c2ccccc2)nc1C,17%,9%,-1%
O=C(CN1CCN(CN2C(=O)NC3(CCCCCC3)C2=O)CC1)Nc1ccc(F)cc1,5%,-21%,0%
CC(=O)c1ccc(S(=O)(=O)N2CCN(C(=O)c3ccc(-n4nc(C)c(Cl)c4C)cc3)CC2)cc1,4%,u,4%
O=C(c1ccc(Cl)c(S(=O)(=O)N2CCCCCC2)c1)N1CCN(c2ccc(O)cc2)CC1,1%,-5%,1%
Cc1nnc(SCC(=O)NC2CC2)n1CC1CCCO1 (stereo not drawn),17%,12%,0%
Cc1ccc(S(=O)(=O)CCC(=O)OCC(=O)NC(C)c2ccc(F)cc2)cc1 (stereo not drawn),16%,-19%,3%

molecule,RE007 growth inh,StopGo reporter,SARS PLP yeast
CC(C)c1ccc(CCNC(=O)CCNS(=O)(=O)c2ccc(Br)cc2)cc1,-7%,0%,-12%
CC[C@@H]1CCCCc2ccccc2[C@@H](C(=O)C[C@@H](O)CC(C)=O)OC1=O,0%,0%,1%
NS(=O)(=O)c1ccc(NC(=O)COC(=O)CSCc2ccc(F)cc2)cc1,2%,-3%,1%
CCC1CCCCN1C(=O)COC(=O)c1ccc(Br)o1 (stereo not drawn),-6%,11%,-2%
COc1ccc(CC(=O)Nc2cccc(S(=O)(=O)N3CCCC3)c2)cc1OC,3%,-27%,-2%
COc1cccc(/C=C/C(=O)OCC(=O)N(C)CC(=O)Nc2ccccc2Cl)c1OC,0%,1%,-3%
C=C[C@@H](C)N(Cc1ccc(OC)cc1)S(=O)(=O)N(Cc1ccccc1)[C@H](C=C)C(C)C,-19%,u,3%
Cc1c(NC(=O)c2cc(Br)ccc2Cl)cccc1-n1cnnn1,-10%,-18%,2%

molecule,RE007 growth inh,StopGo reporter,SARS PLP yeast
COc1cc(F)cc(-c2ccc3c(c2)c(C#Cc2ccsc2)c(-c2cc(OC)cc(OC)c2)n3C)c1,-16%,0%,-4%
COC(=O)C1=C(c2cccc(C#N)c2)C[C@@H]2CC[C@H]1N2C(=O)NCc1ccco1,-10%,-24%,4%
CCCCCCCN1C(Nc2ccccc2)=NC[C@@H]1C,2%,-25%,2%
O=C(NN1C(=O)NC2(CCCCC2)C1=O)c1ccc(Cl)c(Cl)c1,-14%,-12%,4%
CN(Cc1ccccc1)C(=O)COC(=O)c1cc2ccccc2oc1=O,-10%,-6%,-11%
CCOC(=O)c1ccc(N2C(=O)C3CCOc4ccccc4C32)cc1 (stereo not drawn),2%,-16%,-25%
Cc1cnc(NC(=O)c2cccc(S(=O)(=O)N3CCOCC3)c2)s1,3%,11%,7%
Cc1cc(C)c(NC(=O)Nc2ccccc2)c(C)n1,3%,-24%,3%

molecule,RE007 growth inh,StopGo reporter,SARS PLP yeast
O=C(CNC(=O)C1CCCCC1)OCn1nnc2ccccc2c1=O,-10%,-6%,-1%
O=C1CN(C(=O)COC(=O)c2ccc(C(F)(F)F)cc2)c2ccccc2N1,-3%,-16%,6%
O=C(Cn1ncc(Cl)c(Cl)c1=O)NC1CCCCC1,-23%,35µM*,-30%
CCOc1ccccc1N1CC(C(=O)N2CCN(Cc3ccc(C#N)cc3)CC2)CC1=O (stereo not drawn),-1%,u,1%
COc1cc([C@@H]2CC=C(C(=O)O)[C@H](c3ccccc3)N2S(=O)(=O)c2ccc(C)cc2)cc(OC)c1OC,-21%,15%,-8%
O=C(COC(=O)CCN=C1NS(=O)(=O)c2ccccc21)NNC(=O)c1ccc(Cl)cc1,-11%,-9%,1%
CN(Cc1cccc(F)c1)C(=O)CN1CCN(S(=O)(=O)c2ccc3c(c2)OCCCO3)CC1,31%,-22%,-23%
Cc1cccc(NC(=S)N(CCCN2CCOCC2)C(C)c2cc3ccccc3o2)c1 (stereo not drawn),-16%,15%,-1%

molecule,RE007 growth inh,StopGo reporter,SARS PLP yeast
O=C(NC1CCCC1)c1cc2c(=O)n3ccccc3nc2s1,12%,31%[activator],0%
O=C(COC(=O)c1ccc([N+](=O)[O-])o1)NCc1ccc(F)cc1,-20%,-17%,-1%
COc1cccc(/C=C/C(=O)OCC(=O)N2CCCC2)c1OC,6%,27%,-2%
O=C1C=C(c2cc3ccccc3s2)C[C@@H](c2ccc(F)cc2)C1,-7%,-10%,-12%
Cc1ccccc1CSc1nc2ccccc2c(=O)n1C,1%,u,4%
Nc1ncnc2c1ncn2[C@@H]1O[C@H](CNC(=O)[C@@H]2CCCN2S(=O)(=O)c2ccc(F)cc2)[C@@H](O)[C@H]1O,4%,-19%,19%
Cc1occc1-c1nnc(SCC(=O)NC2CCCCC2)o1,5%,8%,-4%
O=C(CCNC(=O)Cn1ccc2ccccc2c1=O)NCCCN1CCOCC1,15%,-14%,2%

molecule,RE007 growth inh,StopGo reporter,SARS PLP yeast
O=C(CCc1nc(-c2ccccc2)no1)NC1CCCCCC1,6%,-12%,-26%
Cc1ccc(S(=O)(=O)N(C)C)cc1NC(=S)N1CCN(Cc2ccc3c(c2)OCO3)CC1,6%,u,-1%
Cn1cccc1C(=O)OCC(=O)NC(=O)NC1CCCCC1,-4%,49%[activator],0%
Cc1ccc(N(C)S(=O)(=O)c2cccc(C(=O)NCCCN3CCCC3=O)c2)cc1,-13%,-2%,12%
CCCNC(=O)C(Cc1ccccc1)NC(=O)c1ccc(C(F)(F)F)cc1 (stereo not drawn),-9%,1%,-1%

These rows are one share of the data, so the mix of outcomes need not match the whole.
